Screens (PubChem)
NPYLR7 agonist – agonists of mosquito NPYLR7 receptor, primary screen, cell-based, Aedes aegypti, calcium fluorescence, mosquito biting behavior. HEK293T NPYLR7/Galpha15, GCaMP6s calcium fluorescence. activation, % at 10 µM. Aedes aegypti neuropeptide Y-like receptor 7 (NPYLR7). 270,000 compounds, 0.15% hits; in the data active = activation above about 40%;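 note: 0% = vehicle and 100% = reference agonist at the receptor; some compounds past the cut are filed as inactive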
NPYLR7 agonist max-min – also measured in NPYLR7 agonist; calls as there; activation, %; measured here: Max-Min RFU normalised activation; some inactives read as strong as hits;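 span of the calcium signal over five minutes; 0% = vehicle and 100% = native peptide agonist; compound fluorescence can raise it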
* marks the source's active call; other numbers are inactive results; & = joins results of further samples. A portion of the library, so the mix of outcomes need not match the whole.

Fields: NPYLR7 agonist	NPYLR7 agonist max-min
(1) O=C(c1ccc(OC(F)(F)F)cc1)N1CCN(CCOC(c2ccccc2)c2ccccc2)CC1
    4	-2
(2) COc1ccc(CC(=O)N2CCN(Cc3cccc(-c4noc(-c5cccs5)n4)c3)CC2)cc1
    5	4
(3) CN1CCN(C)C2(CCN(c3ccnc4cc(Cl)ccc34)CC2)C1
    8	4
(4) O=C(O)c1cccc(S(=O)(=O)N2CCN(CCOC(c3ccccc3)c3cccc(C(F)(F)F)c3)CC2)c1 (stereo not given)
    27	28
(5) O=C(CCC(=O)N1CC2CC(C1)c1cccc(=O)n1C2)NC1CCCCC1 (stereo not given)
    5	1
(6) CCNC1(c2cccs2)CCCCC1=O (stereo not given)
    -7&9	-3&-5
(7) CC(=O)[C@H]1CCC2C3CC[C@H]4C[C@H](O)CC[C@]4(C)C3CC[C@@]21C (stereo not given in full)
    4	-32
(8) CCP(=S)(CC)c1ccc(N(C)C)cc1
    -5	-11
(9) CC12CN3CC(C)(CN(C1)C31CCCC1)C2=O
    0	7
(10) CN1C2CCCC1CC(=O)C2
    -2	-7

The list goes on, overlapping the part above by three compounds.
Fields: NPYLR7 agonist	NPYLR7 agonist max-min
(8) CCP(=S)(CC)c1ccc(N(C)C)cc1
    -5	-11
(9) CC12CN3CC(C)(CN(C1)C31CCCC1)C2=O
    0	7
(10) CN1C2CCCC1CC(=O)C2
    -2	-7
(11) CC1CCCC(=O)CCCC=Cc2cc(O)cc(O)c2C(=O)O1 (stereo not given)
    3	2
(12) Cc1cccn2c(=O)c3cc(C#N)c(=O)n(CC(C)C)c3nc12
    -5	-5
(13) CCN(CC)S(=O)(=O)c1ccc(Cl)c(C(=O)Oc2cccc3cccnc23)c1
    -11	-13
(14) CN1CCc2nc3sc4c(=O)[nH]c(=O)[nH]c4c3cc2C1
    18	9
(15) COC(=O)COc1cc(Cl)c(Cl)cc1Cl
    -4	-8
(16) C[C@H]1C(=O)O[C@@H]2CCN3CC=C(COC(=O)[C@](C)(O)[C@]1(C)O)[C@H]23
    -3	-8
(17) N#CC1C(=N)Oc2c(c(=O)oc3ccccc23)C1c1ccoc1 (stereo not given)
    -2	-8
(18) CC(C)c1ccc2c(c1O)CC[C@H]1C3=C(CC[C@]21C)C(=O)OC3
    -8	-12
(19) CC(C)N(C(=O)CCl)c1ccccc1
    -5&-2	-12&-3
(20) Cc1ccc2c(c1)[C@H]1NCCC(=O)NC[C@H]1CO2
    2	3
(21) O=[N+]([O-])/C=C/c1ccc2c(c1)OCO2
    1	-40
(22) O=C(NCCc1cccnc1)N1CCN(C2CC3CCC2C3)CC1 (stereo not given)
    9	6
(23) NC1(c2nc(-c3ccc(O)cc3)no2)CCCCC1
    -5	-8
(24) Cc1cccc(C)c1NC1=NCCCS1
    -10&-1&3	-17&-5&-34
(25) CCOC(=O)C(=O)Nc1ccc2[nH]cc(CCN3CCOCC3)c2c1
    3	9
(26) CC(C)(C)c1nn(-c2cccc(Cl)c2)c2c1C(c1cccs1)SCC(=O)N2CC(=O)O (stereo not given)
    -3	-4
(27) COc1cc(OC)c([C@H]2C=C(C)[C@H]3C[C@@H]2C3(C)C)c(OC)c1
    -7	-10
(28) CC12CNCC(C)(CN(P(=O)(Oc3ccccc3)Oc3ccccc3)C1)C2=O
    4	6
(29) Cc1ccc(C2=CCN(CCC(=O)NC(N)=O)CC2)cc1
    1	1
(30) CC[C@@]1(O)C[C@H](O)c2c(cc3c(c2O)C(=O)c2c(O)ccc(O)c2C3=O)[C@H]1C(=O)OC
    -13	-9
(31) CC(C)CN(Cc1cc(NC(=O)c2ccccc2Cl)ccc1N(C)C1CCN(C)CC1)C(=O)c1ccccc1Cl
    5	18
(32) COc1cccc(Oc2coc3cc(OC(=O)N(C)C)ccc3c2=O)c1
    2	-1
(33) CN(C)c1nc(CN2CCN(C(=O)Cc3ccccc3F)CC2)ns1
    6	6
(34) CC(C)=CC(=O)N1CCN(C)C2(CCN(C)CC2)C1
    0	14
(35) Cc1cccc(-n2nc(C(C)(C)C)c3c2N(CC(=O)N2CCCC2)C(=O)CSC3c2ccc(F)cc2F)c1 (stereo not given)
    5	-1
(36) COC(C)(C)CCC[C@H](C)C/C=C/C(C)=C/C(=O)OC(C)C
    -3&-4	-11&-8
(37) CC(=O)OCC1=C(C(=O)O)N2C(=O)[C@@H](N)[C@H]2SC1
    -3	-5
(38) O=C(CCN1C(=O)c2ccccc2C1=O)Nc1ccc(Cl)cc1C(=O)c1ccccc1
    -20	-25
(39) CC(CN(C)C)C(C#N)(c1ccccc1)c1ccccc1 (stereo not given)
    8	17
(40) O=C(O)COc1ccc(CN2CCN(CCOC(c3ccccc3)c3ccccc3)CC2)cc1
    1	9

Given with tabs: part of the list above.
#	structure	NPYLR7 agonist	NPYLR7 agonist max-min
26	CC(C)(C)c1nn(-c2cccc(Cl)c2)c2c1C(c1cccs1)SCC(=O)N2CC(=O)O (stereo not given)	-3	-4
27	COc1cc(OC)c([C@H]2C=C(C)[C@H]3C[C@@H]2C3(C)C)c(OC)c1	-7	-10
28	CC12CNCC(C)(CN(P(=O)(Oc3ccccc3)Oc3ccccc3)C1)C2=O	4	6
29	Cc1ccc(C2=CCN(CCC(=O)NC(N)=O)CC2)cc1	1	1
30	CC[C@@]1(O)C[C@H](O)c2c(cc3c(c2O)C(=O)c2c(O)ccc(O)c2C3=O)[C@H]1C(=O)OC	-13	-9

The list continues:
Fields: NPYLR7 agonist	NPYLR7 agonist max-min
(41) Cc1cccnc1CN1CCN(C(=O)COc2cccnc2)CC1
    4	2
(42) O=c1c2cc(I)ccc2nc(/C=C/c2c[nH]c3ccccc23)n1-c1ccccc1
    2	-1
(43) CCOC(=O)C1C(=N)Oc2cc(C)n(CC)c(=O)c2C12C(=O)N(CC(C)C)c1ccccc12 (stereo not given)
    1	-4
(44) CN(C)C1(c2nnnn2CCOC(=O)Nc2ccc(Cl)cc2)CCCCC1
    3	2
(45) CCc1c(C(=O)NC2CC2)cnn1Cc1ccccc1
    0	8
(46) COc1ccc(C=C2C(=O)NC(=O)NC2=O)c(OC)c1
    2	2
(47) CCc1cccc2c(C3=CCNCC3)c[nH]c12
    -2	-2
(48) O=c1oc2ccccc2c(O)c1Cc1c(O)c2ccccc2oc1=O
    2&-10&-3	-2&-11&-9
(49) CCN(CC)CC(O)c1ccc(C2CCCC2)cc1 (stereo not given)
    21	14
(50) CN(c1ccccc1)S(=O)(=O)c1ccc(Cn2nc(C(=O)Nc3nccs3)c3ccccc32)cc1
    -4	24

Fetched by structure from above (3):
Fields: NPYLR7 agonist	NPYLR7 agonist max-min
(41) Cc1cccnc1CN1CCN(C(=O)COc2cccnc2)CC1
    4	2
(47) CCc1cccc2c(C3=CCNCC3)c[nH]c12
    -2	-2
(43) CCOC(=O)C1C(=N)Oc2cc(C)n(CC)c(=O)c2C12C(=O)N(CC(C)C)c1ccccc12 (stereo not given)
    1	-4

Later entries.
Fields: NPYLR7 agonist	NPYLR7 agonist max-min
(51) COC(=O)c1ccc(OC(=O)N(C)c2ccc(C)cc2)cc1
    -2	-4
(52) O=C(CCN1CCC(c2cccc(O)c2)CC1)Nc1cccnc1
    2	-1
(53) CN(C)C(=O)Oc1ccc2cccc(OC(=O)N(C)C)c2c1
    -2	-4
(54) Cc1cc(C)nc(NC2=NCCN2)n1
    -1	-2
(55) COC(=O)c1ccc(CNC(=O)CN2C[C@H]3C[C@@H](C2)c2cccc(=O)n2C3)o1
    3	1
(56) N#Cc1cnc2c(C#N)cnn2c1N
    0	7
(57) C[C@]12CCC3C(CC[C@H]4C[C@@H](O)CC[C@]34C)C1CC[C@@H]2O (stereo not given in full)
    6	4
(58) CCOC(=O)c1c(C)n(Cc2ccccc2)c2ccc(OC(=O)c3cccc(Br)c3)cc12
    -7	-12
(59) CC(=O)C12C(=O)Oc3ccc4ccccc4c3C1C2(C)C(=O)c1ccc(C)cc1 (stereo not given)
    -11	-19
(60) COc1ccccc1C1SCC(=O)N(CC(=O)O)c2c1c(C(C)(C)C)nn2-c1cccc(Cl)c1 (stereo not given)
    8	6
(61) O=C(NCCCN1CCCC1=O)C(C1CCCC1)N1CCN(C(=O)COc2ccccc2)CC1 (stereo not given)
    -11	-10
(62) O=C(Nc1ccccc1C(F)(F)F)c1cccn(Cc2ccc(Cl)cc2)c1=O
    17	7
(63) CCC12CN3CCN(CC(C3)/C1=N/N)C2
    -13	-17

Nos. 53 to 59, reprinted for reference:
Fields: NPYLR7 agonist	NPYLR7 agonist max-min
(53) CN(C)C(=O)Oc1ccc2cccc(OC(=O)N(C)C)c2c1
    -2	-4
(54) Cc1cc(C)nc(NC2=NCCN2)n1
    -1	-2
(55) COC(=O)c1ccc(CNC(=O)CN2C[C@H]3C[C@@H](C2)c2cccc(=O)n2C3)o1
    3	1
(56) N#Cc1cnc2c(C#N)cnn2c1N
    0	7
(57) C[C@]12CCC3C(CC[C@H]4C[C@@H](O)CC[C@]34C)C1CC[C@@H]2O (stereo not given in full)
    6	4
(58) CCOC(=O)c1c(C)n(Cc2ccccc2)c2ccc(OC(=O)c3cccc(Br)c3)cc12
    -7	-12
(59) CC(=O)C12C(=O)Oc3ccc4ccccc4c3C1C2(C)C(=O)c1ccc(C)cc1 (stereo not given)
    -11	-19
